Screens from PubChem.
Ecoli rRNA inh: selective bacterial rRNA inhibition in E. coli; E. coli WT GFP vs humanized-ribosome RFP mutants, fluorescence, 24 h; stronger effect = lower value; DMSO median 0, no signal -100; GFP signal change (wild-type ribosome), % (no concentration beside the values); 1.6% of 350,000 active;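 active = significant combined selectivity score with lowered wild-type GFP, culture density cut under 30%, mutant RFP and density less affected; inactive = any of these conditions unmet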; note: one replicate is shown; some compounds called inactive have numbers as strong as hits
Ecoli growth: inhibitors of Escherichia coli growth. OD600, 23 h; stronger effect = lower value. OD600 absorbance (concentration not given with the values). 0.21% of 330,000 active. AID 1053175;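 active = OD600 absorbance below the run mean of sample wells minus 3.6 SD, in any replicate, cut at about 0.56 in these data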;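 note: stock transfer was 300 nL into about 60 µL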
B2AR ag: agonists of human beta-2 adrenergic receptor inducing internalization | P07550 | Am2.2-beta2AR cells, FAP receptor internalization, flow cytometry; reference of the scale not given here | response, % (no concentration beside the values) | 0.43% of 340,000 active;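 active = response above a set limit, near 3 SD of response in nonfluorescent compounds, cut at about 42% in these data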;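 note: stock transfer was 100 nL into about 11 µL; a reference agonist was the positive control; negative values mostly stem from fluorescent compounds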
Target sequence (P07550 whole entry, looked up): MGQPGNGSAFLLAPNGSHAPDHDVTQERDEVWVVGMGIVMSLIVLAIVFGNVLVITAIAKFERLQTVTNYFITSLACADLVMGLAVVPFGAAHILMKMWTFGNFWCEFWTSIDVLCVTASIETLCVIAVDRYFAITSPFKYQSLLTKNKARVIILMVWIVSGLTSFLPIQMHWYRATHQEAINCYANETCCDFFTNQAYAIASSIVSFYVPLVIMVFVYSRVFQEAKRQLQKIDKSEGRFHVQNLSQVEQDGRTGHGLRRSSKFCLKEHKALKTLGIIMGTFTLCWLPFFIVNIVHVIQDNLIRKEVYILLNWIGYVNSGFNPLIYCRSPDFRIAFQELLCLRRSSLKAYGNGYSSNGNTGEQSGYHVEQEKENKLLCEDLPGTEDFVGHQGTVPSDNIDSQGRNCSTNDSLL
HNF4A DNA FP: change in binding of human HNF4 alpha to DNA; P41235; activity change, % at 10 µM; 0.3% of 360,000 active; HNF4a-FITC DNA binding, fluorescence polarization, 1 h; in the data active = activity change above about 30%, passing the limit was not always enough;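 note: controls were the assay level and a saturating level of protein; the project sought stronger binding though the title names inhibitors; some compounds called inactive have numbers as strong as hits; positive values seem to mean higher polarization but the record does not say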
UCH37 DUB inh: inhibitors of human deubiquitinating enzyme UCH37; Q9Y5K5; purified proteasome/UCH37, Ub-AMC cleavage fluorescence; inhibition, % (test concentration not listed); 0.33% of 330,000 active; AID 588478;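 active = mean of two replicates above 20%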;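 note: 0% = compound-free wells with enzyme and 100% = wells lacking proteasome; stock transfer was 100 nL into about 20 µL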
Target sequence (Q9Y5K5 whole entry, looked up): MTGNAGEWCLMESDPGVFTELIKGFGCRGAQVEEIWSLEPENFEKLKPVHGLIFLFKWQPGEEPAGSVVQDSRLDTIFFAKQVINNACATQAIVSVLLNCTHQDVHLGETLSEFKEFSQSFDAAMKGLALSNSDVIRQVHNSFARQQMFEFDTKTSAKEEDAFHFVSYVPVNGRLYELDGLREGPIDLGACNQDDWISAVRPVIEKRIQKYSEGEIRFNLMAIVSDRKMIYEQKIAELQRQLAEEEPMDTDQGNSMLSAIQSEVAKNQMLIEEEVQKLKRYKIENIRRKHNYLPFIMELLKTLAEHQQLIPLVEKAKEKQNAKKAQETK
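System: Proteasome-associated human UCH37 deubiquitinase; Input: 0.15 nM proteasome in added enzyme buffer; Also added: Ub-AMC substrate from 1 µM stock; Incubation: 30 min compound-proteasome preincubation then 25 min substrate reaction, room temperature; Detection: fluorescence, ex 355 nm, em 460 nm; Read-out: % inhibition of Ub-AMC cleavage fluorescence; Benchmarks: no-proteasome and no-compound wells.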
ALR H2O2 inh: inhibitors of human sulfhydryl oxidase ALR | AID 485317 | purified ALR, DTT oxidation, H2O2 HRP-luminol luminescence | P55789 | 3.8% of 290,000 active | inhibition, % (no concentration beside the values);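 active = mean and each replicate at 75% or more; inconclusive = only one of the two met; inactive = neither met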;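 note: stock transfer was 7.5 nL into about 7.5 µL; 0% = neutral wells and 100% = wells with inactivated enzyme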
FGF22 binding: shifts melting point of recombinant human FGF22. Q9HCT0. recombinant FGF22 thermal shift, SYPRO orange fluorescence; percent of sucrose octasulfate shift, DMSO zero. calls only at 9.99 µM. 1.5% of 340,000 active. AID 651658;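 active = melting point raised past a set limit in the mean and every replicate; inconclusive = no clear call; three in four hits are not shown here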
Target sequence (Q9HCT0 whole entry, looked up): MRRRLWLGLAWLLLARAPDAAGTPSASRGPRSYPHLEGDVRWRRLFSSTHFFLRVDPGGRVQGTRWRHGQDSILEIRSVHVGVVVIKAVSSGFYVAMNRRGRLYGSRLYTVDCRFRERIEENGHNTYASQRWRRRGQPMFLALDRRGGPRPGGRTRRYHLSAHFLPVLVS
Ecoli rRNA inh OD600: second read-out of Ecoli rRNA inh, no call of its own (marks repeat the call); OD600 change, %; measured here: OD600 growth;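 optical density of the mix in the first replicate; 0 = DMSO median and -100 = no signal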
Ecoli rRNA inh RFP: recorded beside Ecoli rRNA inh, whose call it bears; RFP signal change, %; measured here: RFP humanized mutant strains;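 first replicate; 0 = DMSO median and -100 = no signal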
* marks the source's active call; other numbers are inactive results; i = inactive; ? = inconclusive; nt = not tested or not shown. This is a subset; the hit share may differ from the screen's.

no.	molecule	Ecoli rRNA inh	Ecoli rRNA inh OD600	Ecoli rRNA inh RFP	Ecoli growth	B2AR ag	HNF4A DNA FP	UCH37 DUB inh	ALR H2O2 inh	FGF22 binding
1	O=C(NCCCN1CCCC1=O)C1CCCO1 (stereo not drawn)	15	17	5.0	0.69	7	1.1	-0.6	-5	nt
2	CCn1cc(CN2CCCC(CNS(=O)(=O)Cc3ccccc3)C2)cn1 (stereo not drawn)	17	10	1.0	0.62	-3	-0.5	-0.2	-4	i
3	c1ccc(C2NCCn3cccc32)cc1 (stereo not drawn)	nt	nt	nt	0.75	-4	0.0	3.2	4	nt
4	CC(=O)Nc1ccc(S(=O)(=O)N2CCN(c3cccc(C)c3C)CC2)cc1	9	-20	4.3	0.75	7	2.8	0.6	-18	i
5	O=C(c1ccco1)N1CCN(S(=O)(=O)c2cccs2)CC1	9	3	-3.0	0.63	5	-0.4	1.0	-4	nt
6	O=C(COc1ccc(Cl)cc1)NCc1ccc(F)cc1	6	-1	-1.1	0.64	9	1.9	4.0	nt	i
7	COc1ccc(CCNC(=O)CS(=O)(=O)c2cn(CC(=O)N3CCOCC3)c3ccccc23)cc1OC	-22	-30	-6.1	0.68	0	-3.0	1.9	-18	i
8	COc1ccc(C(=O)/C=C/C(=O)N(Cc2ccc(F)cc2)C(C(=O)NC2CCCCC2)c2ccncc2)c(O)c1 (stereo not drawn)	nt	nt	nt	nt	-7	-1.2	0.0	-30	nt
9	COc1ccc(C2C(C#N)=C(/N=C/N3CCN(C)CC3)OC3=C2C(=O)CC(C)(C)C3)cc1OC (stereo not drawn)	nt	nt	nt	nt	-8	1.1	nt	-17	nt
10	O=C(CSc1ncc(C(F)(F)F)cc1Cl)N1CCN(S(=O)(=O)c2ccc(Cl)cc2)CC1	-3	-3	-1.8	0.71	-13	2.9	-1.0	-5	nt
11	O=c1c(Cc2ccc(F)cc2)c(O)ccn1Cc1ccc(F)cc1	3	2	2.3	0.66	0	-0.5	1.3	0	i
12	Cc1cccc(N(CC(=O)NCc2ccc(F)cc2)C(=O)c2ccco2)c1	-2	-3	-1.3	0.59	-1	3.6	0.3	2	nt
13	Cc1ccc2ccccc2c1C(O)c1ncc(-c2cccc(F)c2)[nH]1 (stereo not drawn)	8	3	0.4	nt	nt	1.1	nt	nt	i
14	O=C(NC(CO)Cc1ccccc1)c1ccccc1 (stereo not drawn)	10	4	-1.4	0.68	0	0.4	1.1	-1	i
15	O=S1(=O)C=C[C@@H](COCc2ccccc2)N1Cc1ccc(Br)cc1	-61	-76	-16	nt	nt	4.8	nt	nt	i
16	CCCOC(=O)Nc1ccc(C(N)=O)cc1	nt	nt	nt	0.68	-2	-1.3	1.1	-9	nt
17	COc1c(C(=O)NCCSC(C)(C)C)ccc2ccccc12	nt	nt	nt	0.66	-10	-1.4	-2.1	-6	nt
18	Cc1ccc(C(=O)/C=C/c2ccc3c(c2)OCCO3)c(O)c1	-16	-6	2.2	0.68	0	0.2	7.2	11	i
19	Cc1ccc2nc(-c3cccnc3)c(NC3CCCC3)n2c1	-4	1	-2.6	0.6	-5	6.3	-265	73	i
20	CC1=C(C#N)C(=O)NC(=O)/C1=C\c1ccc(-c2ccc(C)cc2[N+](=O)[O-])o1	-4	0	11	0.73	3	-5.5	10	nt	nt
21	COCCN(C(=O)COC(=O)CC1CCCCC1)c1c(N)n(Cc2ccccc2)c(=O)[nH]c1=O	-2	3	-1.8	0.7	-5	-2.1	6.5	3	i
22	Cc1ccc(-c2nc3c(Cl)cc(Cl)cc3c(=O)n2O)cc1	-42	-55	-11	0.63	2	0.0	3.2	-2	i
23	CC(C)Cc1[nH]c(=O)c(C#N)c2c1CCCC2	nt	nt	nt	0.7	4	0.5	-12	-1	nt
24	O=C(NCCCn1ccnc1)c1cc(-c2ccc(Br)cc2)on1	-4	-12	-2.4	0.64	3	-4.8	-0.4	-3	i
25	CCc1cccc(C)c1NC(=O)CC(C)(C)CC(=O)O	nt	nt	nt	0.68	0	5.6	3.9	-3	i
26	CC(C)C12CN3CC(C(C)C)(CN(C1)C3c1ccc3c(c1)OCO3)C2=O (stereo not drawn)	-8	-3	6.5	0.68	-7	0.4	2.4	-7	i
27	CCOc1ccccc1C(=O)NCCCn1ccnc1	nt	nt	nt	0.68	-3	-0.9	0.1	-9	nt
28	Cc1ccc(C(=O)NCCc2n[nH]c(=S)n2C)cc1	16	4	1.0	0.68	0	0.6	1.9	3	i
29	O=C(CN(CC1CCCO1)C(=O)CNS(=O)(=O)c1ccc(F)cc1)NC1CCCCC1 (stereo not drawn)	-4	1	-1.5	0.68	-1	1.1	1.2	-4	i
30	CCN(CC(=O)Nc1cc(Cl)ccc1C)C(=O)Cn1c(=O)cnc2ccccc21	-1	-1	-2.6	0.71	-6	2.0	1.1	1	nt

no.	molecule	Ecoli rRNA inh	Ecoli rRNA inh OD600	Ecoli rRNA inh RFP	Ecoli growth	B2AR ag	HNF4A DNA FP	UCH37 DUB inh	ALR H2O2 inh	FGF22 binding
31	Cc1cc(C)c2c(c1)C(=O)/C(=C/c1ccc(C(=O)O)cc1)CC2	5	-38	-12	0.66	nt	-2.4	2.0	-3	i
32	O=C1CC(C(=O)Nc2cccc3ccccc23)C2(CCCC2)O1 (stereo not drawn)	nt	nt	nt	0.7	3	1.6	-12	-24	nt
33	COc1cccc(NC(=O)c2ccc(NC(=O)C(C)C)cc2)c1	17	15	1.6	0.69	-9	0.2	3.0	-7	i
34	Cc1cc(C)n(CCN(C)C(=O)CCc2nnc(CCC3CCCCC3)o2)n1	-1	-5	0.7	0.66	-7	2.0	2.7	-3	i
35	CCCCc1n[nH]c(=S)n1Cc1ccc(C)cc1	nt	nt	nt	0.7	1	1.8	2.1	9	i
36	CN(CCOc1ccc(Cl)cc1)C(=O)C1CCN(C(=O)c2ccc(Cl)cc2)CC1	-44	-72	-9.9	0.65	1	-0.2	1.6	1	i
37	c1ccc2oc(SCc3cn4ccsc4n3)nc2c1	nt	nt	nt	0.63	-1	0.5	4.1	59	nt
38	O=C(NCc1ccc2c(c1)OCO2)C1CCN(S(=O)(=O)N2CCCCC2)CC1	nt	nt	nt	0.7	-1	-3.4	6.5	3	nt
39	Cc1ccccc1C(=O)NCc1nnc(SCC(=O)N2CCN(c3ccccc3)CC2)n1C	nt	nt	nt	0.76	-13	-1.4	4.9	0	nt
40	COc1ccc(S(=O)(=O)NNC(=O)C23CC4CC(CC(C4)C2)C3)cc1	0	-3	-1.7	0.71	-8	-3.0	3.3	15	i
41	CCn1c(SCC(=O)NCC2CCCO2)nc2c(c1=O)SCC2 (stereo not drawn)	5	-8	2.2	0.66	-8	-0.4	7.5	-1	i
42	CCc1nnc(NC(=O)c2cccc(S(=O)(=O)N3CCN(C(C)=O)CC3)c2)s1	nt	nt	nt	0.67	-2	-1.7	4.7	0	i
43	CN(C)c1ccc(C=c2c3ccccc3n3c2c2ccccc2[n+]3C)cc1	nt	nt	nt	nt	50*	55	nt	nt	i
44	CCn1c(SCC(=O)NCc2ccccc2)nnc1C(CO)NC(=O)c1ccccc1 (stereo not drawn)	7	12	-2.5	0.73	-6	-0.6	1.7	-4	i
45	CCSc1nc2ccccc2n1CC(=O)O	10	13	1.9	0.71	4	1.4	4.6	11	i
46	CCNC(=O)N(C(=O)NCC)n1c(C)nnc1C	nt	nt	nt	0.68	0	4.1	-1.0	-13	nt
47	Cc1ccc(C)c(Nc2c([N+](=O)[O-])cc(C(=O)N3CC(=O)Nc4ccccc43)cc2[N+](=O)[O-])c1	nt	nt	nt	0.73	7	0.4	3.1	-9	nt
48	CCCCn1c(NCc2ccc3c(c2)OCO3)nc2ccccc21	-46	-70	-9.0	0.68	-30	-2.5	1.9	92*	nt
49	COc1ccc(/C=N/NC(=O)CCn2cnc(-c3ccccc3)c2-c2ccccc2)cc1OC	nt	nt	nt	nt	1	1.7	nt	-2	i
50	COc1ccc(NS(=O)(=O)c2ccc(NC(=O)C(C)(C(F)(F)F)C(F)(F)F)cc2)nn1	nt	nt	nt	0.69	3	14	8.7	-7	nt
51	Cc1csc(=O)n1CC(=O)OCc1nnc(-c2ccc(Cl)cc2)o1	3	3	-1.8	0.65	8	2.0	1.2	-12	i
52	O=c1[nH]c2ccc(Cl)cc2c(-c2ccccc2)c1SC(=S)N1CCOCC1	nt	nt	nt	0.73	11	-4.4	1.1	38	nt
53	COc1cc(CC(=O)OCC(=O)c2ccc3c(c2)OCCO3)cc(OC)c1OC	nt	nt	nt	0.74	2	0.6	-4.4	-9	nt
54	CCCn1c(C)cc(C(=O)COC(=O)c2ccc[nH]c2=O)c1C	nt	nt	nt	0.7	7	-1.9	1.4	5	nt
55	c1ccc(CN2CCN(c3ncnc4c3[nH]c3ccccc34)CC2)cc1	nt	nt	nt	0.69	5	-3.2	-6.2	95*	nt
56	O=C(Nc1ccc(F)cc1)c1ccc(S(=O)(=O)NCC2CCCO2)cc1 (stereo not drawn)	nt	nt	nt	0.7	-8	2.5	1.8	0	nt
57	Cc1cc(C=O)c(C)n1-c1ccc(NC2CCCCC2)c([N+](=O)[O-])c1	nt	nt	nt	0.73	-3	2.3	6.9	-2	nt
58	Cc1ccnc(N2CCCC(C(=O)Nc3cccc(C)c3C)C2)n1 (stereo not drawn)	6	10	-2.1	0.71	1	2.4	0.4	-8	i
59	Cc1ccc2cc(CNC(C)(C)C)c(=O)[nH]c2c1	nt	nt	nt	0.72	-5	1.8	-2.3	9	nt
60	CCc1ccc(NC(=O)N(CCN2CCOCC2)C2CCN(C(C)=O)CC2)cc1	nt	nt	nt	0.67	-2	-2.3	-0.7	-13	nt

no.	molecule	Ecoli rRNA inh	Ecoli rRNA inh OD600	Ecoli rRNA inh RFP	Ecoli growth	B2AR ag	HNF4A DNA FP	UCH37 DUB inh	ALR H2O2 inh	FGF22 binding
61	COC(C[C@@H]1O[C@@H]1[C@@H](O)[C@H](C)OCc1ccccc1)OC	15	19	37	nt	2	5.2	4.0	nt	i
62	C#Cc1ccc([C@H]2C=C(C(=O)NCc3ccccc3)O[C@@H](OCC)[C@@H]2CCCO)cc1	-34	-58	5.5	nt	0	2.9	2.8	4	i
63	c1ccc(CCN2CCN(c3ncnc4c3cnn4-c3ccccc3)CC2)cc1	nt	nt	nt	0.64	2	1.4	0.7	-11	nt
64	C/C(CC(=O)NC1CCCCC1)=N\NC(=O)c1ccccn1	1	0	-0.8	nt	9	3.3	nt	3	i
65	Cc1ccc(S(=O)(=O)Nc2cccc(Cl)c2)cc1NC(=O)C1CC1	6	-24	-0.6	0.71	-4	-1.4	2.6	-6	i
66	O=C(c1ccccc1)c1ccc(OCC(O)CN2CCCCC2)cc1 (stereo not drawn)	nt	nt	nt	0.73	-6	5.5	-0.8	-22	nt
67	CCc1ccc(-c2cc(C)no2)cc1S(=O)(=O)NC(C)Cc1ccco1 (stereo not drawn)	-11	-11	2.0	0.7	-5	-3.1	2.4	0	i
68	O=C(CCNC(=O)c1ccc([N+](=O)[O-])cc1)Nc1ccccc1N1CCCC1	-1	10	0.3	0.73	3	-0.8	3.6	?	i
69	C=CC[C@@H](CC(=O)N[C@H](CO)Cc1ccccc1)C(=O)NC[C@@H](OC(=O)[C@@H](CC=C)Cc1ccc(F)cc1)c1ccccc1	11	15	9.7	0.81	4	1.6	2.1	2	i
70	COc1ccc(NC(=O)CSc2nnc(C)s2)cc1S(=O)(=O)N1CCOCC1	12	9	3.1	0.69	-3	3.8	-0.6	nt	i
71	CN(Cc1ccccc1)C(=O)c1cccc(NC(=O)Cc2ccc(NC(=O)C3CCCN(C(=O)C4CCCCC4)C3)cc2)c1 (stereo not drawn)	-2	-1	1.5	0.71	2	0.2	4.6	nt	i
